Source: PubChem BioAssay
Rce1 inhib: inhibitors of yeast Ras-converting enzyme; calls only; AID 2563; yeast membranes, quenched prenylated peptide cleavage fluorescence; 0.27% of 290,000 active; Q03530;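 active means fall in fluorescence gain of 50% or more versus controls, with final raw signal at or below 3038400; inconclusive means same 50% fall but final raw signal above 3038400; inactive means fall in fluorescence gain under 50%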;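 further: plate controls were neutral control wells for no effect and wells lacking membranes for full effect; tested at 10 µM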
Target sequence (Q03530 whole entry, looked up): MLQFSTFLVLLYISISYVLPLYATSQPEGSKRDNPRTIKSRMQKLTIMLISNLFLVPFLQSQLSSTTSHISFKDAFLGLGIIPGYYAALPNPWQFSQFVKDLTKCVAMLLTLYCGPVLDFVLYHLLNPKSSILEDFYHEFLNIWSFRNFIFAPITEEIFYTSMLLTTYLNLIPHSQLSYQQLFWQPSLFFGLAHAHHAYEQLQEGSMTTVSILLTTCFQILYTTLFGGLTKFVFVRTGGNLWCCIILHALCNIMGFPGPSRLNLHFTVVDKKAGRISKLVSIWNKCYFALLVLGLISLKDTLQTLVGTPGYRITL
Yeast UUG start: alters start codon recognition fidelity in yeast. S. cerevisiae UUG-firefly luciferase reporter, luminescence/redox ratio. activity score, % at 18.7 µM. 0.13% of 350,000 active. AID 602363;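 active means replicate mean at a twofold rise or more, about +100% in these data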;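 further: firefly luciferase made from a UUG start codon reports start codon fidelity; reporter light over untreated wells divided by growth signal over untreated wells; some hits fall short of that in this replicate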
HIV Env fusion: blocks HIV Env-driven cell-cell fusion. inhibition, % at 12.3 µM. 1.1% of 360,000 active. AID 651610. HeLa-JRFL Env/CEM21 cell fusion, luciferase;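 active means mean replicate inhibition score of at least 50 and every replicate individually at or above 50; inconclusive means only one of the two criteria met; inactive means mean below 50 and not all replicates reaching 50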;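 further: 0% = plate neutral controls and 100% = maraviroc near 300 nM; one replicate is shown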
PABP FP inh: blocks human PABP binding to poly(A) RNA. inhibition, % at 35 µM. 1% of 290,000 active. fluorescence polarization. P11940;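 active means 50% or more with normal probe brightness, or confirmed in later tests; inconclusive means above 50% with abnormal brightness, or retests that disagree; inactive means below 50% or failed in later tests; about a fifth of its hits are not listed in these tables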;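 further: calls also rest on retests at 20 µM and on dose response follow-up; controls were probe without protein and protein plus probe with vehicle; some compounds called inactive have numbers as strong as hits; many hits fall short of the cut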
eIF4H FP inh: inhibitors of RNA binding by human eIF4H | 0.94% of 290,000 active | inhibition, % at 35 µM | AID 2012 | Q15056 | eIF4H fluorescence polarization binding assay;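 active means 50% or more with normal probe brightness, or confirmed in later tests; inconclusive means above 50% with abnormal brightness, or retests that disagree; inactive means below 50% or failed in later tests; about a fifth of its hits are not listed in these tables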;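 further: calls also rest on retests at 20 µM and on dose response follow-up; 0% = protein and probe with vehicle and 100% = probe without protein; strong numbers were not always called active; many hits fall short of the cut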
MT1-MMP act inh: MT1-MMP (human) activation inhibition. HT1080 RFP-PRO-GFP cells, GFP/RFP ratio fluorescence, overnight; percent of plate control window, DMSO zero. GFP/RFP ratio change, % at 20 µM. 0.061% of 360,000 active. AID 651647;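 active means GFP/RFP ratio change of at least 30% with cell ATP level not reduced by more than half and red fluorescence within 50% of control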; further: strong numbers were not always called active
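Assay system – RFP-PRO-GFP reporter HT1080 cells · Compound dosing – single dose of 20 µM compound, 1% DMSO final · Incubation – overnight compound exposure at 37 °C · Measure – GFP/RFP fluorescence ratio · Benchmarks – DMSO wells and RFP-L50D-GFP cells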
CSC inhib: blocks cancer stem cells; cancer stem cell-like cells viability, luminescence; inhibition, % at 7.5 µM; 1.1% of 300,000 active;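 active means mean at 75% or more and at least half the replicates too; inconclusive means mean and replicates disagree; tested in HMLE shEcad cells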;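 further: 0% = median of negative and 100% = median of positive control wells; the first replicate is given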
eIF4H FP inh retest: second read-out of eIF4H FP inh, no call of its own (marks repeat the call); inhibition, %; compound at 20 µM; confirmation average;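 mean of two retest wells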
PABP FP inh retest: also measured in PABP FP inh; calls as there; inhibition, %; compound at 20 µM; confirmation repeats;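 mean of two retest wells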
MT1-MMP act inh RFP: also measured in MT1-MMP act inh; calls as there; RFP signal change, %; measured here: RFP expression control read;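 0 = vehicle wells; hits needed this value within 50% of zero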
Numbers without * were called inactive; i = inactive; ? = inconclusive; · = not tested or not shown.

Start of the data: the first 2 entries, to show the layout:
SMILES	Rce1 inhib	Yeast UUG start	HIV Env fusion	PABP FP inh	eIF4H FP inh	MT1-MMP act inh	MT1-MMP act inh RFP	CSC inhib	others
CCOC(=O)c1ccc(CNC(=O)Cn2nnc(-c3ccccc3F)n2)o1	i	·	4	-3	-9	0	3	-12
CSc1ccc(/C=N/NC(=O)c2ccc(C)c(C)c2)cc1	i	-12	-94	94	-4	4	1	31	eIF4H FP inh retest=16;PABP FP inh retest=9

The list itself, from the first entry:
SMILES	Rce1 inhib	Yeast UUG start	HIV Env fusion	PABP FP inh	eIF4H FP inh	MT1-MMP act inh	MT1-MMP act inh RFP	CSC inhib	others
CCOC(=O)c1ccc(CNC(=O)Cn2nnc(-c3ccccc3F)n2)o1	i	·	4	-3	-9	0	3	-12
CSc1ccc(/C=N/NC(=O)c2ccc(C)c(C)c2)cc1	i	-12	-94	94	-4	4	1	31	eIF4H FP inh retest=16;PABP FP inh retest=9
CCOC(=O)C1CCN(c2ncnc3c2nnn3Cc2ccccc2Cl)CC1	i	-1	15	-3	3	-3	-9	0
S=c1[nH]nc(-c2cc(-c3ccco3)[nH]n2)n1-c1cccc2ccccc12	i	-30	-152	?	?	-3	1	-9
CCn1c(SCC(=O)Nc2cccnc2Cl)nnc1-c1ccccc1	i	-15	·	?	-8	1	1	-11
CCOC(=O)C1CCCN(S(=O)(=O)c2ccc(-c3cc(C)no3)s2)C1 (stereo unspecified)	i	-9	4	-9	-7	0	-2	-6
O=S(=O)(Nc1cccnc1)c1ccccc1	i	·	9	-5	0	4	4	5
COc1cccc(CNC(=O)c2ccc3nc[nH]c3c2)c1	i	-17	-7	2	-4	-2	-1	-1
CCOC(=O)c1ccc[n+](CC(=O)c2ccccc2)c1	i	-7	38	14*	59*	-3	5	-20	eIF4H FP inh retest=80*;PABP FP inh retest=88*
O=C(N/N=C/c1ccco1)c1ccc(NC(=O)C2CCCCC2)cc1	i	-18	-21	-4	4	-4	2	-10
COc1ccc(NC(=O)CN2C(=O)NC(C)(C3CCCCC3)C2=O)c(OC)c1 (stereo unspecified)	·	-1	10	·	·	-1	6	·
CN1CCN(/N=C/c2ccc(-c3ccccc3)cc2)CC1	i	-15	23	8	0	-3	-4	-19
CCOC(=O)C1/C(=N\O)CC(C)(O)C(C(=O)OCC)C1c1ccc(N(C)C)cc1 (stereo unspecified)	i	-19	·	26	13	-2	-3	14
Cc1c(Cl)cccc1Nc1ccccc1C(=O)O	i	0	-1	-13	-7	2	-1	1
CCOC(=O)CSc1nnc(CNc2ccccc2Cl)n1-c1ccccc1	i	1	-186	5	-3	1	5	-3
COc1ccc(N)cc1NC(=O)CN1CCOCC1	·	-21	-7	·	·	0	7	·
CC1Sc2ccc(S(=O)(=O)CCC(=O)NCc3ccccc3Cl)cc2NC1=O (stereo unspecified)	i	14	·	3	-11	2	1	0
O=C(COC(=O)C1(c2ccccc2F)CCCC1)N1CCc2ccccc21	i	4	0	1	1	-6	0	0
c1cncc(CNc2nc(N3CCOCC3)nc(N3CCOCC3)n2)c1	i	·	·	0	9	-4	-2	-1
O=C(Nc1ccc(Br)cc1)N1CCCC(O)C1 (stereo unspecified)	i	·	-9	6	-1	2	1	-9
O=C(COC(=O)c1ccc([N+](=O)[O-])o1)NCc1ccc(F)cc1	·	-11	·	·	·	-4	-2	3
CCc1nc2c(=O)[nH]cnc2o1	·	-20	-35	·	·	3	7	·
O=C(NC1CCCCC1)C(c1ccncc1)N(Cc1ccccc1)C(=O)c1ccc(-c2ccccc2)[nH]1 (stereo unspecified)	i	-23	-42	-4	-2	-47	-41	38
COc1ccc(CCNC(=O)CCCOc2cc(=O)n(C)c3ccccc23)cc1OC	i	·	-2	-8	-3	8	8	-11
O=C(CN1C(=O)NC2(CCc3ccccc32)C1=O)c1ccc(Br)cc1 (stereo unspecified)	·	-12	-8	·	·	3	-5	8
Remaining list, next part:
SMILES	Rce1 inhib	Yeast UUG start	HIV Env fusion	PABP FP inh	eIF4H FP inh	MT1-MMP act inh	MT1-MMP act inh RFP	CSC inhib	others
O=C1C=C(c2cc3ccccc3s2)C[C@@H](c2ccc(F)cc2)C1	·	-8	-3	·	·	5	-1	55
CCOC(=O)c1ccc(NC(=O)COc2ccc(S(=O)(=O)N3CCCC3)cc2)cc1	i	-9	·	-6	-2	8	-8	7
CC(C(=O)c1ccccc1)[n+]1cccc(C(N)=O)c1 (stereo unspecified)	i	-20	-3	7	-8	1	-1	-8
CC1(C(=O)N2CC3(CC(c4cccc([N+](=O)[O-])c4)=NO3)C[C@H]2C(=O)NCC(N)=O)CC1 (stereo partly specified)	i	-4	15	10	-4	3	6	21
Cc1cc([N+](=O)[O-])c(N2CCC[C@@H]2C(=O)O)c([N+](=O)[O-])c1	i	6	-40	-6	-10	-3	-10	·
CCOc1ccccc1N1CCN(C(=O)c2ccccc2)CC1	i	9	-39	4	-3	5	6	-13
CCOC(=O)c1ccc(NCCOC)c([N+](=O)[O-])c1	i	-8	-38	3	-11	1	-2	-9
O=C(CSc1nnc(-c2cnccn2)n1Cc1ccco1)c1ccc2ccccc2c1	i	·	-32	4	5	-2	6	35
CC(=O)NC1(C(F)(F)F)C(=O)Nc2c1c(=O)[nH]c(=O)n2Cc1ccco1 (stereo unspecified)	·	-11	·	4	-2	3	4	-7
CC1(C(=O)NC2CCCCC2)CCC(=O)N1CCOc1ccccc1 (stereo unspecified)	·	-7	-17	·	·	1	2	·
Cc1cccc(-n2nnnc2SCc2csc(-c3ccccc3)n2)c1	i	-5	-52	1	-4	0	1	37
CCn1c(SCC(=O)Nc2nc(C)cs2)nnc1C(NC(=O)c1ccccc1Cl)C(C)C (stereo unspecified)	i	-13	·	-13	4	0	0	-11
CCN(CC)S(=O)(=O)c1ccc2c(c1)c(=O)c(C(=O)NCc1ccc3c(c1)OCO3)cn2C	i	·	·	-5	-3	·	·	-3
COc1cccc(CNc2nc3cc(-c4cscc4C)sc3c(=O)n2C)c1	·	-21	38	·	·	6	-18	·
CCCn1cc(SCC(=O)Nc2ccc3c(c2)OCO3)c2ccccc21	i	-10	9	1	-3	-4	-11	27
COc1ccc(N2CCN(C(=O)Nc3cccc(C(F)(F)F)c3)CC2)cc1	i	-7	22	-6	-6	-1	-7	19
Cc1ccc(NC(=O)COc2ccccc2C(=O)NCCc2ccccc2)cc1	i	-9	6	3	-7	5	1	-5
CCOc1ccc2oc(C(=O)N(Cc3nnc(-c4ccccc4Cl)o3)C3CC3)c(C)c2c1	i	·	16	·	·	-1	-6	1
COc1cc(NC(=O)c2ccc(-c3ccc(F)c(F)c3)c3ccoc23)cc(OC)c1OC	·	-20	-20	·	·	-2	0	·
COc1cccc(/C=C/C(=O)OCC(=O)N2CCCC2)c1OC	·	-2	·	·	·	-3	0	16
CN1CCN(CC(=O)Nc2ccc(S(=O)(=O)N(C)C)cc2)CC1	i	2	-8	9	18	-2	0	-9
Nc1sc(-c2ccccc2)n[n+]1Cc1cccc2cccnc12	i	-5	7	0	-8	-1	-7	11
COc1ccc(C2CC(c3ccc(Cl)cc3Cl)Nc3nc(N)nn32)cc1 (stereo unspecified)	i	-6	-7	-14	6	-1	-4	·
CN(Cc1ccccc1)C(=O)COC(=O)c1cc2ccccc2oc1=O	·	17	·	·	·	8	3	-16
CC1CC(C)(C)NC(=S)N1CC(=O)NCc1ccc(Cl)cc1 (stereo unspecified)	i	·	·	-2	3	-5	-5	-7

An excerpt from above in order of formula weight, ascending:
SMILES	Rce1 inhib	Yeast UUG start	HIV Env fusion	PABP FP inh	eIF4H FP inh	MT1-MMP act inh	MT1-MMP act inh RFP	CSC inhib	others
CC(C(=O)c1ccccc1)[n+]1cccc(C(N)=O)c1 (stereo unspecified)	i	-20	-3	7	-8	1	-1	-8
Cc1cccc(-n2nnnc2SCc2csc(-c3ccccc3)n2)c1	i	-5	-52	1	-4	0	1	37
Cc1ccc(NC(=O)COc2ccccc2C(=O)NCCc2ccccc2)cc1	i	-9	6	3	-7	5	1	-5

Next compounds:
SMILES	Rce1 inhib	Yeast UUG start	HIV Env fusion	PABP FP inh	eIF4H FP inh	MT1-MMP act inh	MT1-MMP act inh RFP	CSC inhib	others
Cc1ccc(CNC(=O)C2CC(c3ccccc3C(F)(F)F)=NO2)cc1 (stereo unspecified)	i	-7	-34	20	2	8	7	6
CCN(CC)C(=S)NC(=O)c1cccnc1	i	·	10	-6	-5	0	3	-9
COc1ccc(NC(=O)CSc2cn[nH]n2)c(OC)c1	i	-14	7	5	-1	-1	0	-13
C=CCNc1nc(C(=O)OCC(=O)c2ccc(Cl)cc2)cs1	i	-14	-3	·	·	-1	5	11
CCn1c(CSc2nc3ccccc3s2)nnc1SCC(N)=O	i	-15	-18	-4	1	-1	9	·
COc1ccc(NC(=O)Cc2ccc(C)c(C)c2)cc1Cl	i	-18	13	4	8	2	4	·
O=C(NNC(=O)c1cc(-c2ccccc2Cl)nc2ccccc12)c1csc(N2CCOCC2)n1	i	·	-45	·	·	9	0	-2
CC(C)CC(=O)C1CCCN(C(=O)c2ccc3oc(Cc4ccccc4)nc3c2)C1 (stereo unspecified)	i	-17	0	-8	2	1	-2	-3
CC1(CC(=O)Nc2ccccc2)NC(=S)N(c2ccccc2)N1 (stereo unspecified)	i	1	0	5	1	-2	-1	9
CN(CC(=O)Nc1cccc(F)c1)C(=O)c1ccc(-c2ccc(Cl)cc2)o1	i	-20	-2	-2	-19	-4	-2	12
COC(=O)c1cccnc1-n1c(=O)c2cccnc2n(Cc2ccc(Cl)cc2)c1=O	i	2	-4	-15	-8	0	5	·
COc1ccc(NC(=O)c2ccccc2-c2ccccc2)c(C)c1	i	2	-8	-3	2	3	-1	2
O=C(c1ccc(Cl)cc1)c1ccc(OCC(O)CN2CCOCC2)cc1 (stereo unspecified)	i	-11	·	5	-13	6	-2	-19
O=S(=O)(c1cccnc1)N1CCCC(Nc2ccc(F)c(F)c2)C1 (stereo unspecified)	·	-10	4	·	·	1	3	·
CCN1C(=O)CSc2ccc(C(=O)NCc3ccccc3)cc21	i	-1	-3	·	·	1	2	-2
C/C(=N/NC(=O)c1cccc(Br)c1)C1CC2CCC1C2 (stereo unspecified)	i	-12	14	1	-4	-4	1	-9
C/C(Cl)=C\C[N+](C)(C)CC(=O)OCCc1ccccc1	i	-7	0	-3	0	-1	1	7
CN1OC[C@@H]2CN(C(=O)C(C)(C)C)[C@H](c3ccc(-c4cc5ccccc5o4)cc3)C[C@@H]21	·	-16	15	·	·	4	3	·
Nc1ccc(C2(c3ccc(N)cc3)c3ccccc3C(=O)c3ccccc32)cc1	i	·	-10	·	·	3	-4	63
COc1ccc(CN(C)C(=O)CCNS(=O)(=O)c2ccccc2)c(OC)c1	·	1	29	·	·	7	0	·
CC(Nc1ncnc2sccc12)c1ccccc1 (stereo unspecified)	i	-20	18	-4	-16	-1	-27	10
N#Cc1cccc(NC(=O)N2CCC(c3nc4c(nnn4Cc4cccc(Cl)c4)c(=O)[nH]3)CC2)c1	i	-5	·	-4	-6	8	-4	8
O=C1C(=C(O)c2ccccc2)C(=O)c2ccccc21	i	-27	·	19	-10	-138	51	13
Clc1ccc(-c2noc(CN3CCCC3)n2)cc1	i	-19	·	-4	-6	2	4	-12
CCCc1cc(=O)oc2c3c(cc(OCC(=O)N[C@@H](CSC)C(=O)O)c12)OC(C)(C)CC3	i	7	44	-2	-12	3	6	5
CCOC(=O)/C=C1\CN(C(C)c2ccccc2)S(=O)(=O)c2ccccc21 (stereo unspecified)	i	-1	13	29	9	-2	1	-2
C=CCSc1nnc(-c2sc(-c3ccccc3)nc2C)n1C	i	·	-28	0	-4	2	5	-11
